Bfl-1 A1 inh – caspase 3/7 activation in MEF A1-2A-BIM cells, primary screen, A1 inhibitor project, cell-based, luminescence, HTS. Caspase-Glo 3/7 luminescence, 3 h; percent of clofoctol response, vehicle zero. 330,000 compounds, 0.066% hits. caspase activation, % (no concentration beside the values);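 active = over half of replicate activation scores above 10%, or exactly half above 10 with the replicate mean above 10; inconclusive = replicate mean below 10 yet half the replicates above 10; inactive = over half of replicates below 10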;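 also: wells of about 30 µL received 50 nL stock; many hits fall short of the cut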
rRNA inh HTS – reduced GFP signal of wild-type E. coli, primary screen, bacterial rRNA inhibitor project, GFP/RFP fluorescence, OD600, single point; E. coli WT GFP vs humanized-ribosome RFP mutants, 24 h; active compounds read low; DMSO median 0, no signal -100; 350,000 compounds, 1.6% hits; GFP signal change (wild-type ribosome), % (concentration not given with the values);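 active = significant combined selectivity score with lowered wild-type GFP, culture density cut under 30%, mutant RFP and density less affected; inactive = any of these conditions unmet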; also: one replicate is shown; some compounds called inactive have numbers as strong as hits
T cruzi repl – inhibitors of intracellular T. cruzi growth, primary screen, luminescence, NIH3T3 host cells; T. cruzi beta-gal in NIH3T3, 90 h; inhibition, % (test concentration not listed); 300,000 compounds, 1.4% hits; AID 1885, 2009;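 active = mean inhibition across valid replicates above about 55%, limit read from the data; inconclusive = mean below that limit but half or more replicates reach it; inactive = mean below it, under half of replicates reach it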;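 also: signal also drops with host cell toxicity which is not excluded here; 0% = plate median of DMSO wells and 100% = zero luminescence signal; higher percent means less beta-gal luminescence so fewer parasites; stock transfer was 50 nL into about 50 µL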
FGF22 binding – binders of human FGF22 protein, primary screen, FGF22 synaptogenesis inhibitor project, biophysical, thermal shift, single point; Fibroblast growth factor 22 (Homo sapiens), Q9HCT0; recombinant FGF22 thermal shift, SYPRO orange fluorescence; percent of sucrose octasulfate shift, DMSO zero; calls only at 9.99 µM; 340,000 compounds, 1.5% hits; AID 651658, 2012;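 active = melting point raised past a set limit in the mean and every replicate; inconclusive = no clear call; three in four hits are not shown here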
Target sequence (Q9HCT0 whole entry, looked up): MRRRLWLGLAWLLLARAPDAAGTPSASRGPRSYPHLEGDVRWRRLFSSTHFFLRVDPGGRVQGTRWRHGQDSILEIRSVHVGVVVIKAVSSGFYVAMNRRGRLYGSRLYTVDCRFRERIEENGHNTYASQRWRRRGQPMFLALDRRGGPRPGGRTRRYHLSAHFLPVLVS
Beta cell apopt – inhibitors of cytokine-induced beta cell apoptosis, primary screen, luminescence | INS-1E cytokine-induced death, ATP luminescence, 48 h; percent of positive-control rescue, neutral wells zero | protection from apoptosis, % (no concentration beside the values) | 300,000 compounds, 0.8% hits;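 active = all replicates at 75% or more, or half of them and the mean; inconclusive = half reach 75% but not the mean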;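 also: 0% = cytokine-treated negative control wells and 100% = positive control rescue; higher means more ATP so stronger rescue from cytokine killing; wells of about 40 µL received 100 nL stock; the first replicate is given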
MLL AF4-AF9 inh – inhibitors of AF4 peptide binding to AF9, primary screen, biochemical, AlphaScreen, biotin-AF4 peptide, FLAG-AF9, single point; Protein AF-9 (Homo sapiens), P42568; 350,000 compounds, 0.47% hits; AID 651704, 2012; inhibition, % at 10 µM;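 active = every replicate reaching a set inhibition limit, whatever the replicate mean, cut at about 25% in these data; inconclusive = mean inhibition reaches that limit but some replicates miss it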;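 also: 0% = plate neutral control median and 100% = total signal loss; the record names both 10 and 1 µM as test concentration; the first replicate is given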
Target sequence (P42568 whole entry, looked up): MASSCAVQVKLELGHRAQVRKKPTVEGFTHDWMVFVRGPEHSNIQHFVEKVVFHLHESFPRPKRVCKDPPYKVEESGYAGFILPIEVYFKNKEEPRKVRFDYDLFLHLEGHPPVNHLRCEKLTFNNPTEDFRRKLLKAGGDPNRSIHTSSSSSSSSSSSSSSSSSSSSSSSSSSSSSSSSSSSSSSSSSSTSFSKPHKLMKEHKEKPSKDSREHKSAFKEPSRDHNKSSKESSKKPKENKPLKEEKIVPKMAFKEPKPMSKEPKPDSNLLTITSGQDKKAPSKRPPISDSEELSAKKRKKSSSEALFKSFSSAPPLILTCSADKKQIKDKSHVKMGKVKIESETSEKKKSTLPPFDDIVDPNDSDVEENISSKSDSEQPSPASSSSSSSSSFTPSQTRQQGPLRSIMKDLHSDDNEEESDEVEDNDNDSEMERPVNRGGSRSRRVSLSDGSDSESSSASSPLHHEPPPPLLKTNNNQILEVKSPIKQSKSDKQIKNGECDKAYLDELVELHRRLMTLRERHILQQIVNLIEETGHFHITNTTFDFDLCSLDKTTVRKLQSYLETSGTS
Ecoli growth – E. coli growth inhibition, primary screen, OD600; AID 1053175, 2014; 330,000 compounds, 0.21% hits; OD600 absorbance (concentration not given with the values); Escherichia coli growth, 23 h; active compounds read low;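 active = OD600 absorbance below the run mean of sample wells minus 3.6 SD, in any replicate, cut at about 0.56 in these data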;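 also: stock transfer was 300 nL into about 60 µL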
UCH37 DUB inh – inhibitors of human UCH37 deubiquitinase, primary screen, biochemical, Ub-AMC cleavage, fluorescence; AID 588478, 2011; Ubiquitin carboxyl-terminal hydrolase isozyme L5 (Homo sapiens), Q9Y5K5; 330,000 compounds, 0.33% hits; purified proteasome/UCH37; inhibition, % (test concentration not listed);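 active = mean of two replicates above 20%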;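 also: 0% = compound-free wells with enzyme and 100% = wells lacking proteasome; stock transfer was 100 nL into about 20 µL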
Target sequence (Q9Y5K5 whole entry, looked up): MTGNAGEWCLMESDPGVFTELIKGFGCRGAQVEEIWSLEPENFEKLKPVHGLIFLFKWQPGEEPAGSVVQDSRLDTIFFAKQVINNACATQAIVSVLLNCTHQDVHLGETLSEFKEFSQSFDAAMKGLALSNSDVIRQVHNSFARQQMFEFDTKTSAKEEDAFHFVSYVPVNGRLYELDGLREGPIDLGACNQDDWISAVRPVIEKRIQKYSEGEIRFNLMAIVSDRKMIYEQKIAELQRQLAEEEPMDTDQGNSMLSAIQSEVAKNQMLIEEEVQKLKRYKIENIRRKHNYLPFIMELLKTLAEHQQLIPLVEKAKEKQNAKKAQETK
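system = Proteasome-associated human UCH37 deubiquitinase | amount = 0.15 nM proteasome as dispensed | medium = pH 7.4 Tris-HCl (50 mM) with ovalbumin, ATP-MgCl2, DTT | incubation = 30 min preincubation with enzyme, 25 min cleavage at room temperature | detection = AMC fluorescence 355/460 nm | read-out basis = percent inhibition | controls = no-proteasome and no-compound wells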
rRNA inh HTS OD600 – recorded beside rRNA inh HTS, whose call it bears; OD600 change, %; measured here: OD600 growth;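 optical density of the mix in the first replicate; 0 = DMSO median and -100 = no signal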
rRNA inh HTS RFP – also measured in rRNA inh HTS; calls as there; RFP signal change, %; measured here: RFP humanized mutant strains;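 first replicate; 0 = DMSO median and -100 = no signal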
* = called active by the depositor; i = inactive; ? = inconclusive; nt = no result given. Some of the compounds tested (hit frequency here may not be typical).

structure | Bfl-1 A1 inh | rRNA inh HTS | rRNA inh HTS OD600 | rRNA inh HTS RFP | T cruzi repl | FGF22 binding | Beta cell apopt | MLL AF4-AF9 inh | Ecoli growth | UCH37 DUB inh
CCOC(=O)/C=C1\SCC(=O)N1CC(O)CN1C(=O)CS/C1=C/C(=O)OCC (centres undefined) | nt | 11.8 | 12.4 | 4.1 | nt | i | nt | -1.1 | 0.648 | 0.0
O=C(CN1CCN(S(=O)(=O)c2ccc(Cl)s2)CC1)NCc1ccc(Cl)cc1 | 1.1 | nt | nt | nt | 6.6 | nt | 4.5 | nt | 0.663 | 5.8
CCOC(=O)N1CCN(C(=O)Nc2ccc(Cl)cc2)CC1 | 0.7 | nt | nt | nt | -10.4 | nt | -4.3 | nt | 0.672 | 7.9
CC1C(=O)C(C)C(c2ccc(Br)cc2)NC1c1ccc(Br)cc1 (centres undefined) | 1.7 | 5.6 | 11.7 | 0.6 | 67.5* | i | 8.2 | -7.5 | 0.693 | 2.6
CCOc1cc(-c2c(C#N)c(N)nc3c2CCCC3C)ccc1O (centres undefined) | -0.5 | nt | nt | nt | 15.0 | nt | 8.6 | nt | 0.653 | -8.1
O=C(c1ccc(Cl)cc1)c1coc2ccc(O)cc12 | -3.9 | nt | nt | nt | -5.5 | nt | -5.8 | nt | 0.718 | 0.3
CCOC(=O)C1CCN(c2cc3c(cc2NC(=O)c2ccc(OC)c(OC)c2)n(C)c(=O)n3C)CC1 | -0.1 | 2.9 | 7.8 | -0.6 | 40.1 | i | 20.8 | 3.3 | 0.668 | 1.6
CNC[C@H]1Oc2ccc(NC(=O)Nc3ccc(OC)cc3)cc2C(=O)N([C@@H](C)CO)C[C@H]1C | 0.6 | 1.0 | -0.9 | 1.3 | nt | i | -6.1 | 0.6 | nt | nt
O=C(CSc1nnc2ccccn12)N1CCc2ccccc21 | -0.1 | 15.2 | 5.7 | 1.4 | -7.0 | i | -1.3 | -0.8 | 0.612 | -0.3
Cc1cccc2cc(CN(Cc3ccccc3)C(=O)N(C)C)c(=O)[nH]c12 | 1.3 | nt | nt | nt | -16.5 | nt | 3.6 | nt | 0.676 | -0.8
CCOc1ncccc1C(=O)OCc1cn2cc(Cl)ccc2n1 | 1.0 | nt | nt | nt | -7.9 | nt | nt | nt | 0.725 | 3.4
O=c1c2c(ncn2C2CCCC2)n(Cc2ccccc2)c(=O)n1CCOc1ccccc1 | -1.7 | -5.4 | -15.1 | -7.5 | 15.7 | i | 12.3 | 1.4 | 0.676 | 1.1
C[C@]12c3[nH]c4ccc(Cl)cc4c3CCN1C(=O)[C@@H](CC(=O)NCCN1CCOCC1)C[C@@H]2C(=O)N1CCCCC1 | nt | -17.4 | -14.9 | 6.1 | nt | i | nt | 1.3 | 0.684 | 1.1
COc1cc(N2CCCC2)c(OC)cc1/C=C1/NC(=S)NC1=O | -0.9 | nt | nt | nt | -10.8 | nt | 7.3 | nt | 0.747 | 5.9
CCCCCc1cc(=O)[nH]c(=S)[nH]1 | -1.3 | 9.8 | 7.3 | 3.4 | -3.9 | i | 0.8 | -1.1 | 0.684 | 4.1
Cc1cccc(NC(=O)CN2C(=O)N/C(=C\c3ccccc3OCc3ccc(C(=O)O)cc3)C2=O)c1 | 0.5 | -6.8 | 8.2 | 2.9 | -10.9 | i | -3.7 | -3.5 | 0.624 | -3.0
O=C(Oc1ccccc1)c1cccc(COC(=O)c2cnccn2)c1 | 0.1 | nt | nt | nt | -16.9 | nt | -0.2 | nt | 0.709 | 2.2
COCCn1c(SCC(=O)Nc2ccccc2OC)nc2c(oc3ccccc32)c1=O | 0.1 | 7.1 | 4.4 | 3.1 | 0.4 | i | 15.8 | -2.5 | 0.696 | 5.7
Cc1ccc2nc(-c3cccc(Br)c3)cc(C(=O)NC3CC3)c2c1 | 0.3 | 6.4 | 12.1 | -1.5 | 21.9 | i | 10.4 | 2.9 | 0.737 | -1.6
NC(=O)Nc1ccc(Cl)cc1 | 0.2 | 22.2 | 7.5 | -7.9 | -4.6 | nt | -2.0 | -3.3 | 0.675 | 3.1
N#Cc1c(NC(=O)c2cccnc2)sc2c1CCC2 | 0.0 | nt | nt | nt | -18.7 | nt | 5.1 | nt | 0.71 | 9.7
c1ccc(-c2nc(N3CCCCC3)nc3ccccc23)cc1 | 0.3 | nt | nt | nt | -17.3 | nt | 1.5 | nt | 0.724 | -14.0
COc1ccccc1-n1cnnc1SCC(=O)NC1CCS(=O)(=O)C1 (centres undefined) | -0.6 | 21.5 | 7.3 | 3.2 | -19.1 | i | -0.7 | -0.5 | 0.714 | 4.5
COCc1cc(=O)[nH]c(-c2ccccc2)n1 | -0.3 | 9.7 | 4.6 | -3.6 | -6.0 | i | -6.2 | -1.2 | 0.661 | 1.2
COc1ccccc1CN1CCNC(=O)C1CC(=O)NCCOc1cccnc1 (centres undefined) | -0.3 | 7.8 | 10.3 | -4.3 | -17.5 | i | -2.0 | -15.0 | 0.74 | 4.5

structure | Bfl-1 A1 inh | rRNA inh HTS | rRNA inh HTS OD600 | rRNA inh HTS RFP | T cruzi repl | FGF22 binding | Beta cell apopt | MLL AF4-AF9 inh | Ecoli growth | UCH37 DUB inh
CCCCNC(=O)C(C)N(CCN(C)C)C(=O)CCCCCN1C(=O)NC(c2ccc(Cl)cc2)C(C(=O)OCc2ccccc2)=C1C (centres undefined) | nt | -56.5 | -81.5 | -17.8 | nt | i | nt | 15.0 | 0.719 | 2.9
O=C(Nc1cccc(Cl)c1N1CCOCC1)c1ccco1 | -0.1 | -11.1 | -24.4 | -3.7 | 7.1 | i | -2.8 | 1.7 | 0.714 | 4.1
COCCn1c(SCC(=O)Nc2cc(C)cc(C)c2)nc2ccccc2c1=O | 0.3 | 1.9 | 8.3 | 0.1 | 4.5 | i | -5.0 | -8.2 | 0.719 | -0.8
COc1ccc(Oc2cc(C(F)(F)F)nc(N(C)C)n2)cc1 | -1.0 | 11.1 | 4.8 | 6.0 | -10.0 | i | 1.3 | -2.5 | 0.693 | -1.5
Cc1ccc(CC(CC(=O)O)C(=O)NCC23CC4CC(CC(C4)C2)C3)cc1 (centres undefined) | 0.5 | -20.2 | -23.6 | -3.3 | -22.3 | i | -3.0 | -7.7 | 0.671 | -0.4
CCc1cccc(CC)c1NC(=S)NCc1ccc2c(c1)OCO2 | 1.2 | nt | nt | nt | 23.2 | nt | 0.1 | nt | 0.645 | 3.3
COc1cc(CC(=O)Nc2ccc(S(=O)(=O)NC3=NCCCCC3)cc2)cc(OC)c1OC | 0.0 | 6.7 | 2.0 | -4.5 | -11.8 | i | -0.6 | 0.7 | 0.652 | 3.3
CCN(CC)c1ccc(NC(=O)c2ccc3c(c2)OCO3)cc1 | -3.0 | -12.4 | -2.5 | -7.6 | -0.9 | i | 12.1 | 16.4 | 0.657 | 6.4
CC(=O)N1c2ccccc2[C@@H](C)[C@@H]1C | 0.8 | 9.2 | 7.2 | -7.5 | nt | i | -0.7 | -2.2 | nt | 3.5
COc1ccc(C2(C)NC(=O)N(CC(=O)NCc3ccccc3F)C2=O)cc1 (centres undefined) | 0.1 | 6.7 | 17.7 | -1.2 | -2.1 | i | -8.9 | -0.7 | 0.653 | 2.4
O=[N+]([O-])c1cccc(/C=N/NC2=NS(=O)(=O)c3ccccc32)c1 | -0.2 | 11.1 | 13.1 | 1.4 | -3.6 | i | -4.9 | 1.9 | nt | nt
CCCC(=O)N=C1SC2CS(=O)(=O)CC2N1c1ccc(-c2nc3ccc(C)cc3s2)cc1 (centres undefined) | -0.9 | nt | nt | nt | 33.2 | i | -3.6 | -3.3 | 0.708 | -133.7
COc1ccc(C(=O)NCC(C)C)c(OC)c1 | 0.1 | nt | nt | nt | -7.0 | nt | -5.2 | nt | 0.72 | 0.4
COc1ccccc1/C=C1\SC(=S)N(CCC(=O)NC2=NCCS2)C1=O | -0.6 | 0.9 | -6.9 | 1.4 | 13.6 | i | -12.7 | -0.4 | 0.708 | 3.7
O=S(=O)(Cc1ccccc1)N1CCN(Cc2ccc(Br)cc2)CC1 | 0.5 | 8.1 | 19.0 | -0.5 | 4.1 | i | 0.3 | -1.1 | 0.705 | -1.3
Cc1ccc(C(=O)N/C(=C\c2cn(S(=O)(=O)N(C)C)c3ccccc23)C(=O)N2CCCC2)cc1 | 1.2 | -1.8 | -10.5 | 3.9 | 5.3 | i | 9.8 | 3.1 | 0.7 | 0.6
COc1ccc(S(=O)(=O)N2CCCCCC2)cc1C(=O)N(C)CCOc1ccccc1 | 0.2 | -9.9 | -10.7 | 5.1 | -2.0 | i | 3.4 | -16.9 | 0.701 | 3.1
O=C1c2oc3ccccc3c(=O)c2C(c2cccc(O)c2)N1c1ccccn1 (centres undefined) | -0.2 | -21.2 | -40.2 | -3.7 | 5.8 | i | 0.0 | -2.3 | 0.726 | 2.3
Cc1c(C(=O)NCC2CCCO2)oc2ccccc12 (centres undefined) | -0.5 | -1.5 | -7.3 | -4.1 | nt | i | -4.3 | 0.2 | 0.651 | -0.4
COCCCn1c(SCC(N)=O)nnc1-c1ccccc1 | 0.5 | nt | nt | nt | -8.4 | nt | 0.7 | nt | 0.675 | 4.8
Cc1cc(C)n2nc(C(=O)Nc3ccc(S(=O)(=O)N4CCCC4)cc3)nc2n1 | 0.3 | 5.6 | 11.0 | -6.2 | 1.5 | nt | -4.0 | 2.5 | 0.68 | 0.1
Cc1ccccc1C(=O)NC(=S)Nc1ccc(S(=O)(=O)N2CCN(C)CC2)cc1 | ? | nt | nt | nt | 1.3 | nt | -2.6 | nt | 0.677 | 6.5
Cn1c(=O)c2c(nc(N3CCOCC3)n2CCSc2ncccn2)n(C)c1=O | 0.2 | 1.2 | 14.2 | -5.5 | -17.3 | i | -1.9 | -1.9 | 0.638 | 5.0
Cc1c(NC(=O)CSc2nccn2C)c(=O)n(-c2ccccc2)n1C | 0.7 | nt | nt | nt | -8.5 | nt | -7.1 | nt | 0.722 | 1.0
CCOc1ccc2c(c1)ncn2Cc1ccccc1 | 0.8 | -19.3 | -20.6 | -3.9 | 16.0 | nt | 3.5 | -1.0 | 0.653 | 3.8
CCC(=O)Nc1sc(C(=O)Nc2ccccc2)c(C)c1C(=O)OC | -1.5 | -18.8 | -11.0 | -2.2 | 14.5 | nt | 1.3 | -3.2 | 0.678 | 3.4
COC(=O)C(C)n1cnc2c(nnn2-c2cccc(OC)c2)c1=O (centres undefined) | 0.2 | 15.2 | 4.5 | 0.3 | -2.0 | i | -1.0 | 3.3 | 0.651 | 2.2
Nc1cc(=O)[nH]c(SCc2ccc(Cl)cc2Cl)n1 | -0.8 | -5.8 | -0.3 | -1.8 | -1.9 | i | 17.6 | -1.5 | 0.671 | 4.2
